Assay outcomes as filed in PubChem.
HIV TAR-Tat = HIV-1 TAR-Tat binding disruption. HIV-1 TAR RNA, Tat peptide displacement FRET; hits give high values. z-score (no concentration beside the values). AID 1259389. 0.6% of 100,000 active;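 also: score is relative to mean and SD of negative controls; some compounds called inactive have numbers as strong as hits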
CDC25B-CDK2 inh = human CDC25B-CDK2/CyclinA binding inhibition. HTRF CDC25B-CDK2/CyclinA binding, anti-His/anti-Flag; hits give high values. P30305+P24941. 0.72% of 94,000 active. z-score (test concentration not listed);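 also: score is relative to mean and SD of negative controls; strong numbers were not always called active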
An asterisk follows results filed as active; . = no result given.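 The calls were made as follows: active = z-score from 3 up in half or more of its runs; inactive = the rest.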

SMILES	HIV TAR-Tat	CDC25B-CDK2 inh
CCC1CN(C(=O)N2CCC(C(=O)NC3CC3)CC2)c2ccccc2O1 (centres undefined)	1.79	.
O=c1c(SCc2cccc(Cl)c2)nccn1-c1ccccc1	-0.05	.
CSc1nc2ccccc2n1CCOc1ccccc1	-0.05	-0.53
CCC12CN3CC(CC)(CN(C1)C3c1ccc(F)cc1)C2=O (centres undefined)	-0.16	-0.51
CC(=O)/C(=C\c1ccccc1)CC(=O)O	1.21	.
Cn1c(=O)oc2cc(S(=O)(=O)N3CCCC3c3cccs3)ccc21 (centres undefined)	-0.95	-2.09
O=C(Nc1ccc(F)cc1F)N1CCC2(CC1)C(=O)NCN2c1ccccc1	-0.51	-1.03
CCCCCOC(=O)C1=C(C)Nc2ncnn2C1c1cccc(Cl)c1 (centres undefined)	0.57	-0.48
COC(=O)CSCC(=O)Nc1ccsc1C(=O)OC	.	-0.36
CCC(O)c1nc2ccccc2n1CCOc1ccc(OC)cc1 (centres undefined)	-0.44	-0.56

Exported comma-delimited: five of the compounds above.
SMILES,HIV TAR-Tat,CDC25B-CDK2 inh
CC(=O)/C(=C\c1ccccc1)CC(=O)O,1.21,.
Cn1c(=O)oc2cc(S(=O)(=O)N3CCCC3c3cccs3)ccc21 (centres undefined),-0.95,-2.09
O=C(Nc1ccc(F)cc1F)N1CCC2(CC1)C(=O)NCN2c1ccccc1,-0.51,-1.03
CCCCCOC(=O)C1=C(C)Nc2ncnn2C1c1cccc(Cl)c1 (centres undefined),0.57,-0.48
COC(=O)CSCC(=O)Nc1ccsc1C(=O)OC,.,-0.36

The list goes on:
SMILES	HIV TAR-Tat	CDC25B-CDK2 inh
CCCCN1C(=O)C2(/C(=C(/O)c3ccc(C)c(F)c3)C(=O)C(=O)N2CCCOC)c2ccccc21 (centres undefined)	0.71	-0.91
CC1(C)Cc2nc3oc4c(=O)n(CC(=O)N5CCCC5)cnc4c3cc2CO1	0.57	.
Cc1ccccc1OCc1nn2c(C(F)(F)F)nnc2s1	-0.18	-1.11
CCn1c(/C=C/c2ccc3c(c2)OCO3)nc2ccccc2c1=O	-2.28	-2.14
O=C(N=c1ccc(Br)cn1C(=O)c1ccc(Cl)cc1Cl)c1ccc(Cl)cc1Cl	.	-2
COc1ccc(N2C(=O)c3cccnc3C2Nc2ccc(F)c(F)c2)cc1 (centres undefined)	0.39	.
C=CCn1c(NC(=O)C2CCCCC2)nc2ccccc21	0.17	-1.09
O=S(=O)(Nc1ccc(Br)cc1F)c1ccc2nc(-c3ccccc3)[nH]c2c1	.	-1.04
CCOc1ccc2[nH]c(C)cc(=O)c2c1	0.96	-1.79
O=c1[nH]nc(Sc2ncc(Br)cc2[N+](=O)[O-])n1-c1ccccc1	.	-1.06
O=C(NCCCN1CCN(c2ccc(F)cc2)CC1)c1cnc2sc(N3CCCC3)nn2c1=O	1.27	.
COc1ccc(OC)c(CNCc2cccn2-c2nnc(N3CCOCC3)s2)c1	0.93	.
CCOC(=O)C(=CNc1ccc(OC)c(C(=O)OC)c1OC)C(=O)OCC	.	0.05
CCN(Cc1ccc(OC)cc1)S(=O)(=O)c1ccc(OC)c(-c2noc(C(C)(C)C)n2)c1	2.28	-1.45
O=C(NCC1COCCO1)C1=Cc2cc(Br)ccc2OC1 (centres undefined)	0.39	.
O=S(=O)(Cc1ccc(Cl)cc1)Cc1nc(-c2ccsc2)no1	.	-2.91
CCOc1ccc(-c2cc(NC(=O)COCc3cc(-c4ccc5c(c4)OCO5)on3)on2)cc1	1.02	.
CS(=O)(=NS(=O)(=O)c1ccccc1Cl)c1ccc(C(F)(F)F)cn1 (centres undefined)	.	-0.96
COCCOC(=O)C1=C(C)NC2=C(C(=O)CC(C)(C)C2)C1c1ccc(Cl)cc1 (centres undefined)	0	-1.12
CCn1ccc2cc(S(=O)(=O)N3CCC(C(=O)NC4CC4)CC3)ccc21	1.65	.
CCCN1CCn2c(nc3ccccc32)C1	0.46	-0.5
Cc1nc2sc3c(c2c2nncn12)CCCC3	.	-2.6
CC(=O)c1ccc(-c2ccc(F)c(Cl)c2)o1	.	-0.61
COC(=O)c1scc(C)c1NN1C(=O)c2c(Cl)c(Cl)c(Cl)c(Cl)c2C1=O	.	-1.69
CCOc1ccc2nc(NC(=O)c3oc(C)nc3C)sc2c1	1.86	-1.17
CCCS(=O)(=O)c1oc(-c2ccc(F)cc2)nc1S(=O)(=O)c1ccc(F)cc1	-1.02	-3.83
Cn1cccc1Cc1nnc(SCC(=O)NC2CCCCC2)n1C	1.01	-1.49
Cc1nnc2c(NC3CCCCC3)nc3ccccc3n12	0.27	2.68
COc1ccc2c(c1)CC(NC(=O)NCCC1=CCCCC1)CO2 (centres undefined)	0.77	.
COc1ccc(C(=O)OCC(=O)c2ccc(Cl)cc2)cc1	.	-1.59

Another view of seven compounds above:
Values run as follows: HIV TAR-Tat	CDC25B-CDK2 inh
CCn1ccc2cc(S(=O)(=O)N3CCC(C(=O)NC4CC4)CC3)ccc21
 : 1.65	.
CCCN1CCn2c(nc3ccccc32)C1
 : 0.46	-0.5
Cc1nc2sc3c(c2c2nncn12)CCCC3
 : .	-2.6
CC(=O)c1ccc(-c2ccc(F)c(Cl)c2)o1
 : .	-0.61
COC(=O)c1scc(C)c1NN1C(=O)c2c(Cl)c(Cl)c(Cl)c(Cl)c2C1=O
 : .	-1.69
CCOc1ccc2nc(NC(=O)c3oc(C)nc3C)sc2c1
 : 1.86	-1.17
CCCS(=O)(=O)c1oc(-c2ccc(F)cc2)nc1S(=O)(=O)c1ccc(F)cc1
 : -1.02	-3.83

The list goes on:
SMILES	HIV TAR-Tat	CDC25B-CDK2 inh
COc1ccc(C2C3=C(CC(C)(C)CC3=O)OC3=C2C(=O)CC(C)(C)C3)c(OC)c1	.	-1.21
Cc1ccccc1N1C(N)=NC(N)=NC1(C)C	.	-0.13
CCOC(=O)c1c(C)oc2nc(C)nc(NCC3CCCO3)c12 (centres undefined)	1.84	.
CN1c2ccccc2-c2nc(SCC(=O)Nc3ccccc3Cl)ncc2S1(=O)=O	0.78	.
N#CC(C#N)=CNc1ccc(Oc2cccnc2)nc1	.	-0.22
CC1CCN(C(=O)N2c3ccccc3Sc3ccccc32)CC1	1.29	-2.88
CC(Sc1nc2ccccc2o1)C(=O)O (centres undefined)	1.54	-1.1
Cn1nc(C(C)(C)C)cc1C(=O)NNc1c(Cl)cncc1Cl	.	-0.89
c1coc(-c2nc3ccccn3c2Nc2ccc3c(c2)OCCO3)c1	-2.92	0.18
COc1ccc(CN2CCN(Cc3ccccc3Br)CC2)c(OC)c1	1.67	2.15
O=C(CSc1nnc(-c2cnccn2)s1)c1cccc(C(F)(F)F)c1	.	-0.45
CC(Sc1nc2c(N)ncnc2n1Cc1ccccc1)C(=O)O (centres undefined)	0.97	0.82
Cn1c(SCc2cc(=O)n3ccsc3n2)nc2sc3c(c2c1=O)CCCC3	2.24	-2.13
O=c1ccc(-c2ccc(S(=O)(=O)NCCC3=CCCCC3)o2)n[nH]1	1.35	.
Cc1nnc(SCC(=O)N2CCN(S(=O)(=O)c3ccccc3)C2)s1	-1.97	-1.86
Cc1noc2ncnc(N3CCN(c4ccc(F)cc4)CC3)c12	0.28	.
CCCN(CCC)C(=O)Cn1c(C(=O)OC)cc2ccsc21	-0.98	-1.26
O=S(=O)(Cc1ccc(Cl)cc1)N1C=CC(C(F)(F)F)=NCC1	.	-1.92
CCc1ccc2c(c1)[C@H]1OCC[C@H]1[C@@H](c1cccs1)N2	0.69	-0.7
Cn1c(=O)n(CC(=O)O)c(=O)c2c1nc1n2CCN1c1ccccc1	1.7	-2.89
CN1C(=O)CN(S(C)(=O)=O)CC1(C)C(=O)NCC(=O)NCCC1=CCCCC1 (centres undefined)	0.87	.
COc1ccc(C(=O)C(OC(=O)c2ccncc2)c2ccccc2)cc1 (centres undefined)	0	-1.66
O=C(COc1cc(C(=O)O)nc2ccccc12)Nc1ccc2c(c1)OCO2	0.92	1.18
Cn1c2ccccc2c2cnn(CC(=O)Nc3ccc(F)c(Cl)c3)c(=O)c21	1.5	-0.8
COc1cc2c(cc1NC(=O)CSc1nnnn1-c1ccccc1)oc1ccccc12	.	-0.96
CCc1nn(CC(=O)N2CC(C)CC(C)C2)c(=O)c2cc3occc3n12 (centres undefined)	1.31	-0.13
Clc1ccccc1-c1nnc2sc(-c3ccncc3)nn12	.	0.09
COc1cc2cc(OS(=O)(=O)c3cc([N+](=O)[O-])ccc3C)nc(C)c2cc1OC	.	-1.77
Cc1ccc2cc(-c3noc(CCC(=O)Nc4nccs4)n3)c(=O)[nH]c2c1	2.8	-8.76
Cn1c(CCN(Cc2ccco2)S(=O)(=O)c2ccc(Cl)cc2)n[nH]c1=S	.	-0.55
CCN1CCN(c2nc(N3CCCC3)nc3c2cnn3C)CC1	1.17	.
CCc1ccc(-c2cc(C)no2)cc1S(=O)(=O)Nc1cc(C)on1	0.74	.
Cc1c(Cl)cccc1NC(=O)Nc1nc2ccc(S(C)(=O)=O)cc2s1	-0.08	-2.68
CC(C)c1ccc(NC(=O)CSC2=C(C#N)C(c3cccs3)C3=C(CC(C)(C)CC3=O)N2)cc1 (centres undefined)	0.24	0.45
Fc1ccccc1Oc1ncnc2c1oc1ccccc12	1.39	.
CCOC(=O)CN1CC23C=CC(O2)C(C(=O)N2CCCC2)C3C1=O (centres undefined)	0.62	-0.6
Cc1nc2ccccn2c(=O)c1Cc1nnc(SCC(=O)Nc2ccccc2F)n1C	1.17	-1.6
O=C(Cn1c(=O)n(-c2ccccc2)c(=O)c2sccc21)N1CCCC1	.	-0.64
O=C(CCC(=O)N1Cc2cccn2-c2ccccc21)NC1CCCc2ccccc21 (centres undefined)	1.03	.
COCCOC(=O)C1=C(C)NC2=C(C(=O)CC(c3cccs3)C2)C1c1ccc(O)cc1 (centres undefined)	0.99	-1.93

Overlap with the part before: 3 entries, then new ones.
SMILES	HIV TAR-Tat	CDC25B-CDK2 inh
O=C(Cn1c(=O)n(-c2ccccc2)c(=O)c2sccc21)N1CCCC1	.	-0.64
O=C(CCC(=O)N1Cc2cccn2-c2ccccc21)NC1CCCc2ccccc21 (centres undefined)	1.03	.
COCCOC(=O)C1=C(C)NC2=C(C(=O)CC(c3cccs3)C2)C1c1ccc(O)cc1 (centres undefined)	0.99	-1.93
CCOc1ccc(-c2noc(-c3nnn(-c4ccc(F)cc4F)c3N)n2)cc1	-0.02	.
CC(C)n1c(/C=C/c2ccccc2)nc2ccccc21	.	0.82
O=C(CCCc1c[nH]c2ccccc12)NC1CC1	.	-2.56
O=C(Oc1cccc(Br)c1)c1cc(-c2ccccc2)on1	-0.35	-1.42
CCc1nn(C(C)C(=O)NC(C)CCc2ccccc2)c(=O)c2cc3occc3n12 (centres undefined)	0.79	-1.31
Cc1cc(C)cc(-n2ccnc(NCc3ccco3)c2=O)c1	-0.31	.
CCCSCCCNC(=O)Cn1nc(C)n2cccc2c1=O	0.85	-1.48
CCc1nnc(NC(=O)c2cc(-c3cccs3)on2)s1	0.4	-1.05
CCOC(=O)C1CCN(c2nnc(N3CCCCC3)c3ccccc23)CC1	2.42	-1.22
Cc1ccc(S(=O)(=O)NCCc2nnc3ccc(SCc4ccccc4C)nn23)cc1	2.52	.
CC1=NN(c2cccc(S(N)(=O)=O)c2)C(=O)C1	.	-0.43
CN(CCCOc1ccc(Cc2ccccc2)cc1)CCC(=O)O	.	-1.43
COc1ccc2c(c1)Cc1sc(NC(=O)c3ccc(OC)c(Br)c3)nc1-2	0.6	19.4*
Cc1ccc(N2CCN(c3nc4ccccc4n4cnnc34)CC2C)cc1 (centres undefined)	1.42	-1.28
Cn1cccc1Cc1nnc(SCC(N)=O)n1-c1ccc(Cl)cc1	-0.57	0.16
O=C1NC2(CCN(S(=O)(=O)c3cccs3)CC2)Oc2ccccc21	.	-1.58
CCOC(=O)c1cc(Cn2c(=O)c(OCC)nc3cnccc32)on1	0.87	.
CC(NC1CCS(=O)(=O)C1)C(=O)O (centres undefined)	-0.59	-0.73
COc1ccc(Nc2c(-c3ccsc3)nc3ncccn23)cc1	-1.16	-2.92
O=C1CN(c2ccccc2)C(=O)N1c1ccccc1	.	-1.31
COc1cc(Cl)ccc1OC(=O)C1=Cc2sc(C)c(C)c2CS1	-0.18	.
CCOc1ccc(-c2cn3nc(C(CC)CC)sc3n2)cc1	1.14	0.37
COc1c(Br)ccc2c1sc1ncnc(OC)c12	-1.08	-1.47
CC(C)(C)C1CCc2oc3ccc(NS(=O)(=O)c4ccc(C(=O)O)cc4)cc3c2C1 (centres undefined)	2.82	0.99
O=S(=O)(Nc1ccc2c(c1)OCCO2)c1ccc(N2CCCCS2(=O)=O)cc1	0.26	.
COCCC[n+]1c(C)csc1Nc1ccc(Cl)cc1	.	-1.51
Cc1ccc(C)c(Cn2c3ccccc3c3cnn(CC(=O)NCC4CCCO4)c(=O)c32)c1 (centres undefined)	0.25	0.1
Cc1cc2nc(CSc3ccccc3NC(=O)c3cccs3)cc(=O)n2o1	1.02	.
O=C(Nc1ccccc1Cl)N1CCN(c2ccccn2)CC1	0.52	-1.3
O=C(O/N=C/c1ccc2c(c1)OCO2)c1ccccc1	.	-2.96
CCOC(=O)c1c(NC(=O)N2CCn3c(C)ccc3C2CC)sc2c1CCCC2 (centres undefined)	-9.27	-1
COC(=O)C1Nc2cc(F)ccc2S(=O)(=O)N1 (centres undefined)	0.91	-1.83
COc1ccc(N2CSC3=C(C#N)C(c4ccc(Cl)cc4)CC(=O)N3C2)cc1OC (centres undefined)	2.36	1.5
CCC(CC)C(=O)N(c1ccc(OC)cc1OC)C1C=CS(=O)(=O)C1 (centres undefined)	0.6	-1.73
C=CCSc1nc(=O)c2c(n1C)NC(=O)CC2c1ccc(OC(C)C)cc1 (centres undefined)	1.21	-1.01
CCC(O)c1nc2ccccc2n1CCCOc1ccc(Cl)cc1 (centres undefined)	-0.69	1
CCOc1ccc(-c2cc(-c3nc(-c4ccc(OC)c(OC)c4)no3)[nH]n2)cc1	0.7	.
O=C(O)c1ccccc1C(=O)Nc1ccc(F)cc1	.	0.76
O=C(O)CCCn1c(=O)c2cccn2c2ccc(F)cc21	0.21	-0.7
Cn1cc(NC(=O)Nc2ccccc2Cl)c2ccccc2c1=O	-1.63	.
